UUG fidelity – yeast start codon fidelity modulation; S. cerevisiae UUG-firefly luciferase reporter, luminescence/redox ratio; activity score, % at 18.7 µM; actives 0.13% (n = 350,000);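 active = replicate mean at a twofold rise or more, about +100% in these data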;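 note: firefly luciferase made from a UUG start codon reports start codon fidelity; reporter light over untreated wells divided by growth signal over untreated wells; some hits fall short of that in this replicate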
MT1-MMP act inh – inhibitors of human MT1-MMP activation | HT1080 RFP-PRO-GFP cells, GFP/RFP ratio fluorescence, overnight; percent of plate control window, DMSO zero | GFP/RFP ratio change, % at 20 µM | actives 0.061% (n = 360,000) | AID 651647;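 active = GFP/RFP ratio change of at least 30% with cell ATP level not reduced by more than half and red fluorescence within 50% of control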; note: strong numbers were not always called active
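Assay system: HT1080 RFP-PRO-GFP cells | Dosing: 20 µM single dose, 1% DMSO | Incubation: Cells overnight before dosing, compound overnight, 37 °C, 5% CO2 | Evaluation: GFP/RFP fluorescence ratio | Control set: DMSO-only wells and HT1080 RFP-L50D-GFP cell wells as references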
eIF4H inh – inhibitors of RNA binding by human eIF4H; eIF4H fluorescence polarization binding assay; inhibition, % at 35 µM; actives 0.94% (n = 290,000); AID 2012;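 active = 50% or more with normal probe brightness, or confirmed in later tests; inconclusive = above 50% with abnormal brightness, or retests that disagree; inactive = below 50% or failed in later tests; about a fifth of its hits are not listed in these tables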;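 note: calls also rest on retests at 20 µM and on dose response follow-up; 0% = protein and probe with vehicle and 100% = probe without protein; strong numbers were not always called active; many hits fall short of the cut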
PABP polyA inh – PABP-poly(A) binding inhibition; inhibition, % at 35 µM; PABP-poly(A) RNA binding, fluorescence polarization; actives 1% (n = 290,000); AID 2014; P11940;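 active = 50% or more with normal probe brightness, or confirmed in later tests; inconclusive = above 50% with abnormal brightness, or retests that disagree; inactive = below 50% or failed in later tests; about a fifth of its hits are not listed in these tables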;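 note: calls also rest on retests at 20 µM and on dose response follow-up; controls were probe without protein and protein plus probe with vehicle; some compounds called inactive have numbers as strong as hits; many hits fall short of the cut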
Target sequence (P11940 whole entry, looked up): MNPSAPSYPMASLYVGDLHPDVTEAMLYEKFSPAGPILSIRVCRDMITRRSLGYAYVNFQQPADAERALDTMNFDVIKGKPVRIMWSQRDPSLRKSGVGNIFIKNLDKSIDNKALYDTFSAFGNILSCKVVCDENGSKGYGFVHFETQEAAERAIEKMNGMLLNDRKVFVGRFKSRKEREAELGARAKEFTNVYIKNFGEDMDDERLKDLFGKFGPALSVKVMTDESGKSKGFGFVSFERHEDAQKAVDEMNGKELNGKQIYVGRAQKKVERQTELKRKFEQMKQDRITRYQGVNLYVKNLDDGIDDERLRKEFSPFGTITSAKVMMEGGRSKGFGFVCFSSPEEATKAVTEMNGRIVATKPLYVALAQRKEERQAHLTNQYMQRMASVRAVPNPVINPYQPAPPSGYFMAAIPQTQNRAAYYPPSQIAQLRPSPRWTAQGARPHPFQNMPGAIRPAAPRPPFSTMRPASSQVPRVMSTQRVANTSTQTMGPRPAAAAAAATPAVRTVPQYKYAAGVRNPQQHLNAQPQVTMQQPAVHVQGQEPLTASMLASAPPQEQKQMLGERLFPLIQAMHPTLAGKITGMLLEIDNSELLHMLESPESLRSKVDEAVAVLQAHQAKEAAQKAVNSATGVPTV
Rce1 inh – blocks yeast Ras-converting enzyme. yeast membranes, quenched prenylated peptide cleavage fluorescence. Q03530. calls only. actives 0.27% (n = 290,000);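 active = fall in fluorescence gain of 50% or more versus controls, with final raw signal at or below 3038400; inconclusive = same 50% fall but final raw signal above 3038400; inactive = fall in fluorescence gain under 50%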;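 note: plate controls were neutral control wells for no effect and wells lacking membranes for full effect; tested at 10 µM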
Env fusion inh – blocks HIV Env-driven cell-cell fusion | inhibition, % at 12.3 µM | actives 1.1% (n = 360,000) | HeLa-JRFL Env/CEM21 cell fusion, luciferase | AID 651610;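 active = mean replicate inhibition score of at least 50 and every replicate individually at or above 50; inconclusive = only one of the two criteria met; inactive = mean below 50 and not all replicates reaching 50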;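 note: 0% = plate neutral controls and 100% = maraviroc near 300 nM; one replicate is shown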
CSC inhib – blocks cancer stem cells; actives 1.1% (n = 300,000); inhibition, % at 7.5 µM; cancer stem cell-like cells viability, luminescence; AID 2717;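 active = mean at 75% or more and at least half the replicates too; inconclusive = mean and replicates disagree; tested in HMLE shEcad cells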;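 note: 0% = median of negative and 100% = median of positive control wells; the first replicate is given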
MT1-MMP act inh RFP – further read-out of MT1-MMP act inh, marked with its call; RFP signal change, %; measured here: RFP expression control read;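 0 = vehicle wells; hits needed this value within 50% of zero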
* = called active by the depositor; i = inactive; ? = inconclusive; nt = not tested or not shown. An excerpt; count on the stated rates, not on these rows.

SMILES | UUG fidelity | MT1-MMP act inh | MT1-MMP act inh RFP | eIF4H inh | PABP polyA inh | Rce1 inh | Env fusion inh | CSC inhib
Cc1ccccc1OCCNCC(C)O (stereo not given) | nt | nt | nt | 2 | 20 | i | -7 | -10
Cc1nnc(Nc2ccc(C(=O)NCCO)cc2)c2ccccc12 | -4 | 5 | 4 | -10 | 5 | i | -20 | -12
O=c1c(=NNc2ccccc2Cl)c(=O)c2ccccc12 | -18 | 4 | -3 | 0 | 2 | nt | nt | nt
COc1ccccc1CN1C(=O)[C@H]2Cc3c([nH]c4ccccc34)C(C)(C)N2C1=O | -13 | -1 | -1 | nt | nt | i | 8 | -10
COc1cccc(C(=O)OCC(=O)c2c[nH]c3ccccc23)c1O | -5 | -1 | 1 | 10 | -9 | i | 1 | -1
COc1ccc(C(C)(NC(C)=O)c2nc(-c3ccncc3)cs2)cc1 (stereo not given) | 12 | 1 | 1 | nt | nt | nt | 22 | nt
Cc1ccccc1C(=O)NC(CC(C)C)C(=O)N1CCN(c2ccccc2)CC1 (stereo not given) | -17 | -1 | -1 | -10 | 3 | i | 4 | -5
COc1ccc(N2C(=NC(=O)CCC3CCCC3)SC3CS(=O)(=O)CC32)cc1 (stereo not given) | -26 | -2 | 0 | 3 | -7 | i | 1 | -14
CS(=O)(=O)CCC(C(=O)O)N1C(=O)c2ccc(Oc3ccc(Cl)cc3)cc2C1=O (stereo not given) | -7 | -1 | 3 | -10 | -4 | i | -2 | -19
Cc1ccc(C(C(=O)NCC2CCCO2)N(Cc2ccccc2F)C(=O)Cn2nnc(-c3cccs3)n2)cc1 (stereo not given) | -12 | -4 | -3 | -12 | -6 | i | -67 | -14
Cc1cc(C)c(-c2c(O)c3cccc4c3n(c2=O)CCC4)c(C)c1 | 15 | -3 | -2 | 8 | -4 | i | 0 | -4
O=[N+]([O-])c1ccccc1NC(=S)N/N=C/c1ccc(O)c(O)c1 | nt | 4 | -3 | 16 | 15 | i | -162 | 39
O=C1C2C3C=CC(C3)C2C(=O)N1c1ccccc1 (stereo not given) | -10 | 3 | 7 | 8 | 4 | i | -494 | -11
Cc1cc(=O)n2nc(-c3ccc(C(F)(F)F)cc3)sc2n1 | 2 | 6 | 2 | -8 | 10 | i | -229 | 7
Cc1ccc(NC(=O)CN(C)C(=O)COc2cccc3ccc(C)nc23)cc1 | -4 | 3 | 6 | nt | nt | nt | nt | -12
O=C(Cn1nnc(-c2ccc(F)cc2)n1)Nc1ccc2c(c1)OCCO2 | nt | 0 | 1 | 12 | 7 | i | 4 | 3
CCOC(=O)c1c(NC(=O)CSc2nnc(C)s2)sc2c1CCC(C)C2 (stereo not given) | -5 | -8 | -12 | -9 | 20 | i | nt | 4
COc1nc2ccc(C)cc2cc1-c1noc(-c2ccccc2)n1 | -2 | -5 | 0 | -1 | -9 | i | -2 | -8
CCCC(C)NC(=O)c1ccc(OCc2ccc(Cl)cc2)c(OC)c1 (stereo not given) | -3 | 3 | -5 | -4 | 3 | i | nt | 22
CN1CCC(NC(=S)NC2CC2)CC1 | nt | 2 | 0 | 8 | 2 | i | 11 | -14

Next section, overlapping the part above by three compounds.
SMILES | UUG fidelity | MT1-MMP act inh | MT1-MMP act inh RFP | eIF4H inh | PABP polyA inh | Rce1 inh | Env fusion inh | CSC inhib
COc1nc2ccc(C)cc2cc1-c1noc(-c2ccccc2)n1 | -2 | -5 | 0 | -1 | -9 | i | -2 | -8
CCCC(C)NC(=O)c1ccc(OCc2ccc(Cl)cc2)c(OC)c1 (stereo not given) | -3 | 3 | -5 | -4 | 3 | i | nt | 22
CN1CCC(NC(=S)NC2CC2)CC1 | nt | 2 | 0 | 8 | 2 | i | 11 | -14
NS(=O)(=O)c1ccc(CCNC(=O)C(=O)NCC2OCCN2S(=O)(=O)c2cccs2)cc1 (stereo not given) | 13 | -5 | 0 | 16 | 6 | i | -1 | 0
O=C(CCc1c[nH]c2ccccc12)N/N=C/c1ccc2c(c1)OCO2 | -9 | -1 | -3 | -2 | 6 | i | -19 | 1
CC(C)Cc1nnc(NC(=O)CCC(=O)N2CCN(c3ccc(F)cc3)CC2)s1 | -3 | 2 | -6 | -5 | -1 | i | 9 | -28
Oc1ccc(C23CCCC2C2(CCCC2)c2ccc(O)cc2O3)c(O)c1 (stereo not given) | 5 | 2 | -6 | nt | nt | nt | ? | nt
S=c1[nH]nc(-c2ccc(Cl)cc2)n1/N=C/C=C/c1ccco1 | -19 | 2 | 4 | 83* | 80* | i | -4 | -10
CC(=O)c1ccc(NC(=O)CSc2nc(N3CCOCC3)nc(N3CCOCC3)n2)cc1 | -19 | -3 | -1 | -7 | 11 | i | -5 | 30
O=C(Cn1ncn2cccc2c1=O)N1CCCCC1 | -4 | 4 | 7 | -6 | 6 | i | nt | 7
CSc1nc2[nH]c3c(c2c2ncnn12)CCCC3 | -17 | 1 | -5 | -4 | 10 | i | nt | 8
FC(F)(F)c1cc(Oc2ccccc2)nc(-c2ccccn2)n1 | -3 | -1 | -2 | 4 | 12 | i | -23 | 0
Cc1ccc(NC(=S)NNC(=O)c2ccc(N3CCOCC3)c([N+](=O)[O-])c2)cc1Cl | nt | 4 | -2 | 10 | 13 | i | -15 | -6
Cc1cc(C(=O)NCc2ccc3c(c2)OCO3)ccc1[N+](=O)[O-] | -13 | 3 | 0 | -2 | 11 | i | 5 | -21
CC1CCCCC1NC(=O)COC(=O)CN1C(=O)c2ccccc2C1=O (stereo not given) | -13 | -2 | 2 | nt | nt | nt | -4 | -5
COc1cc(Cl)c(C)cc1NC(=O)CC1SC(N2CCOCC2)=NC1=O (stereo not given) | -11 | 1 | 6 | nt | nt | nt | -7 | -2
CC1(C(=O)OCC(=O)Nc2cc(S(=O)(=O)N3CCOCC3)ccc2Cl)CC1(Cl)Cl (stereo not given) | 5 | 1 | -4 | nt | nt | nt | -1 | nt
O=C(N/N=C/c1cc(O)ccc1Br)c1cccnc1 | -8 | 2 | -5 | 24 | 14 | i | 8 | nt
CCOCCCNC(=O)CCC(=O)NNc1nc2ccccc2c2nc(-c3ccccc3)nn12 | nt | 7 | 3 | -5 | 5 | i | 8 | -6
O=C(NCc1cccnc1)c1ccc2c(=O)n(CCCN3CCCC3=O)c(=S)[nH]c2c1 | -3 | -5 | -4 | -12 | -13 | i | -43 | -8
CCOCCCNC(=O)c1cc2c(-c3ccc(Cl)cc3)nn(C)c2s1 | -16 | -2 | -3 | 9 | 2 | i | 4 | 14
O=C(O)CCc1ccc(S(=O)(=O)Nc2cc(C(F)(F)F)ccc2N2CCCC2)cc1 | -14 | 0 | 3 | nt | nt | nt | -10 | nt
CCOC(=O)C1=C(C)N=c2s/c(=C\c3ccc(OC(C)=O)cc3)c(=O)n2C1/C=C/c1ccccc1 (stereo not given) | nt | -7 | -4 | -3 | 2 | i | 12 | 9

2 records drawn at random from the list so far, as already listed:
SMILES | UUG fidelity | MT1-MMP act inh | MT1-MMP act inh RFP | eIF4H inh | PABP polyA inh | Rce1 inh | Env fusion inh | CSC inhib
COc1cc(Cl)c(C)cc1NC(=O)CC1SC(N2CCOCC2)=NC1=O (stereo not given) | -11 | 1 | 6 | nt | nt | nt | -7 | -2
CCOCCCNC(=O)c1cc2c(-c3ccc(Cl)cc3)nn(C)c2s1 | -16 | -2 | -3 | 9 | 2 | i | 4 | 14

Other structures.
SMILES | UUG fidelity | MT1-MMP act inh | MT1-MMP act inh RFP | eIF4H inh | PABP polyA inh | Rce1 inh | Env fusion inh | CSC inhib
CC1c2cc3c(cc2CCN1C(=O)c1cccc(F)c1)OCCCO3 (stereo not given) | 11 | 1 | -8 | -7 | -10 | i | -18 | 33
NC(=O)c1ccc(NC(=O)C2CC2)cc1 | nt | 1 | -3 | 11 | -3 | i | -2 | -17
CCNc1c(NS(=O)(=O)c2ccc(F)c(Cl)c2)c(=O)oc2ccccc12 | -15 | 2 | 1 | -3 | 2 | i | -2 | -3
CCN1CCN(C(=S)NC(CC(=O)c2ccccc2)c2ccccc2)CC1 (stereo not given) | nt | -1 | -3 | -9 | -1 | i | 8 | 15
CC(Sc1ccc(Cl)cc1)C(=O)Nc1ccc2c(c1)OCO2 (stereo not given) | -15 | 3 | -3 | -2 | -4 | i | 1 | -9
COc1ccc(CNC(=O)CC(C)c2ccccc2)cc1 (stereo not given) | -12 | -2 | -3 | -4 | 0 | i | 11 | -13
CC(=O)c1oc2ccccc2c1N | -15 | -2 | 2 | -10 | 0 | i | -34 | -16
COc1ccc(NS(=O)(=O)c2ccc(/C=C/C(=O)O)cc2)cc1S(=O)(=O)N1CCOCC1 | -3 | 11 | 11 | -2 | 8 | i | -7 | -3
Cc1ccc(N(CC(=O)NC(C)c2ccccc2)S(=O)(=O)c2c(C)n[nH]c2C)cc1 (stereo not given) | -18 | -3 | -1 | -6 | 2 | i | 12 | -10
CCOc1ccc(NS(=O)(=O)c2ccc(C(=O)NCCCN3CCOCC3)cc2)cc1 | -4 | 2 | 5 | -4 | -7 | i | nt | nt
CN(CC(=O)Nc1c(Cl)cccc1Cl)C(=O)CCNS(=O)(=O)c1ccccc1C(F)(F)F | 21 | 1 | 0 | nt | nt | i | 1 | -17
COc1ccc(Cl)cc1NC(=O)CN1CCN(C(=O)N2CCOCC2)CC1 | -10 | -2 | 1 | -7 | -4 | i | 3 | -6
COc1ccc(OC)c(NC(=O)CSc2nc3scc(C)c3c(=O)[nH]2)c1 | -14 | 4 | 4 | -6 | -1 | i | -5 | nt
COCCCNC(=O)c1ccc2c(=O)n(CC3CCCO3)c(=S)[nH]c2c1 (stereo not given) | -19 | 2 | 0 | 15 | 2 | i | 18 | -12
O=C(Nc1ccc(-n2cnnn2)cc1)C1CCCN1C(=O)Nc1ccc(Br)cc1 (stereo not given) | nt | 2 | 3 | -4 | 1 | i | 11 | -5
COc1cc(/C=N/Nc2snc(SC)c2C#N)ccc1O | 5 | -10 | -13 | -4 | -3 | i | 2 | 58
COc1cc(CN(C(=S)NCC(=O)N2CCCC2)C2CCCC2)cc(OC)c1OC | nt | -3 | 0 | -3 | 8 | i | 7 | -3
O=C(NC(Cc1ccccc1)C(=O)O)/C(=C\c1ccc([N+](=O)[O-])cc1)NC(=O)c1ccco1 (stereo not given) | -5 | -11 | -2 | 3 | -4 | i | 19 | -4
CCOC(=O)c1cc2cc(CC(=O)c3ccc(OCC)cc3O)ccc2o1 | -4 | -3 | 1 | -3 | 1 | i | -2 | -1
CN(C)S(=O)(=O)c1ccc(Cl)c(NC(=O)COC(=O)[C@@H]2CCCN2C(=O)c2cccs2)c1 | nt | -1 | 1 | 4 | 6 | i | -4 | 7
COc1ccc(S(=O)(=O)N2CCOCC2)cc1NC(=O)COc1ccccc1OC | -7 | 1 | 2 | 1 | 7 | nt | 15 | -12
Cc1cc2c(c(=O)n1C1CC1)C(c1cccc(Cl)c1)C(C#N)=C(N)O2 (stereo not given) | -2 | 2 | 2 | 2 | -4 | i | -44 | -6
CC(OC(=O)COc1ccc(Nc2ccccc2)cc1)C(=O)N(C)c1ccccc1 (stereo not given) | nt | 6 | 2 | nt | nt | i | -40 | -7
CCc1ccc(NC(=O)C(=O)c2cn(CC(=O)N3CCCCC3)c3ccccc23)cc1 | -33 | -2 | -9 | 14 | -1 | i | -2 | 12
CC(=O)c1cnc2n(c1=O)CCS2 | nt | 0 | 6 | -6 | 3 | i | 0 | nt
Cc1cc(=O)n2nc(N3CCCC3C(=O)Nc3cccc(Cl)c3C)sc2n1 (stereo not given) | 0 | -6 | 5 | 1 | -11 | i | nt | -4
C#CCNC(=O)C1=C[C@H](c2ccc(C#C)cc2)C[C@H](OCc2ccc(CO)cc2)O1 | 1 | 2 | -4 | nt | nt | i | 8 | -37
O=C(COc1ccccc1[N+](=O)[O-])c1ccccc1 | nt | -1 | 3 | 1 | 9 | i | -5 | 0

Bioassay records from PubChem.
